RN4220 kill: kills Staphylococcus aureus RN4220; S. aureus RN4220 growth, OD600, 16 h; inhibition, % (test concentration not listed); 330,000 compounds, 0.33% hits; AID 1259311;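 active = z-score of -3 or lower and OD600 up to 0.18 on both plates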;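 note: plate controls were untreated cells for no effect and reference antibiotic for full effect; stock transfer was 100 nL into about 80 µL; one replicate is shown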
Bead autofluor: flagged as autofluorescent in microsphere protease counterscreen; compound autofluorescence counterscreen, microsphere flow cytometry; stronger effect = higher value; fluorescence intensity (concentration not given with the values); 360,000 compounds, 3.1% hits;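 active = at least 3 SD above the mean of all compounds, about 16000 in these data; inconclusive = too few beads counted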;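 note: 100 nL of 1 mM stock went into each well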
PrP UTR inh: inhibition of PrP 5' UTR reporter expression; cell-based PrP 5' UTR mRNA reporter, plate reader; inhibition, % (test concentration not listed); 340,000 compounds, 0.35% hits; AID 488862;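 active = every replicate at 50% or more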;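 note: 0 = median of the neutral control wells; tested in H4 reporter cells; numbers are from one replicate; inactives centre near -14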
Mtb hypoxia inh: inhibitors of hypoxia-regulated fluorescent reporter in Mycobacterium tuberculosis; AID 1159583; fluorescence inhibition, % (test concentration not listed); 300,000 compounds, 0.1% hits; M. tuberculosis hypoxia-regulated fluorescent reporter, fluorescence;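 active = 35 to 45% if threefold the growth effect, above 45% if 1.5-fold the growth effect; inactive = the rest, general growth blockers included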;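 note: wells of about 50 µL received 100 nL stock; 0% = vehicle wells and 100% = reference inhibitor wells; whole bacteria with a GFP reporter of the hypoxia response; strong numbers were not always called active; many hits fall short of the cut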
BJeLR viability: BJeLR cell viability loss. 300,000 compounds, 0.17% hits. BJeLR (HRASV12) viability, CellTiter-Glo ATP luminescence, 48 h; reference of the scale not given here. inhibition, % (concentration not given with the values);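 active = replicate mean above 50%; inconclusive = above 50% but judged a plate artefact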;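 note: 50 nL library stock added to about 25 µL; numbers are from one replicate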
ugtP null kill: kills S. aureus RN4220 lacking UgtP. growth inhibition, % (no concentration beside the values). 330,000 compounds, 0.54% hits. S. aureus RN4220 ugtP deletion, OD600 growth, 16 h; some inactives read as strong as hits;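 active = z-score under -3 and OD600 up to 0.15 on both plates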;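 note: plate controls were untreated wells for no effect and antibiotic for full effect; wells of about 80 µL received 100 nL stock; the first replicate is given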
Mtb hypoxia inh growth: also measured in Mtb hypoxia inh; calls as there; growth inhibition, %; measured here: M. tuberculosis growth (absorbance);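 0% = vehicle and 100% = reference antibiotic; read after six days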
Starred values were filed as active, the others as inactive; ? = inconclusive; nt = not tested or not shown.

Start of the data: the first two compounds, ahead of the listing:
Structure | BJeLR viability | Bead autofluor | ugtP null kill | Mtb hypoxia inh | PrP UTR inh | RN4220 kill | Mtb hypoxia inh growth
Cc1ccc(S(=O)(=O)N2CCOCC2)cc1NC(=O)COC(=O)c1n[nH]c(=O)c2ccccc12 | 4.5 | 4383 | nt | nt | -12.5 | nt | nt
COc1ccc(NS(=O)(=O)c2cc(NC(=O)CCNC(=O)c3ccco3)ccc2OC)cc1 | nt | 4601 | 8.5 | -0.7 | -16.4 | -0.1 | -1.5

The whole of this part, repeating the preview:
Structure | BJeLR viability | Bead autofluor | ugtP null kill | Mtb hypoxia inh | PrP UTR inh | RN4220 kill | Mtb hypoxia inh growth
Cc1ccc(S(=O)(=O)N2CCOCC2)cc1NC(=O)COC(=O)c1n[nH]c(=O)c2ccccc12 | 4.5 | 4383 | nt | nt | -12.5 | nt | nt
COc1ccc(NS(=O)(=O)c2cc(NC(=O)CCNC(=O)c3ccco3)ccc2OC)cc1 | nt | 4601 | 8.5 | -0.7 | -16.4 | -0.1 | -1.5
COc1ccc(S(=O)(=O)N2CC(O)C[C@H]2C(=O)OCC(=O)N2CCCCCC2)cc1 (stereo not given in full) | 5.4 | 3388 | 2.7 | 12.6 | -21.4 | 8.0 | 10.3
COc1ccc(CCNC(=O)CC(=O)NN=Cc2ccc(C(=O)O)cc2)cc1OC | nt | nt | 15.2 | 0.8 | nt | 0.4 | -3.9
Cc1ccc(NC(=O)COC(=O)Cc2c[nH]c3ccccc23)cc1C | nt | ? | -7.9 | 1.1 | nt | 1.6 | -0.3
Cn1c(CCN2CCCCC2)nc2cc(NC(=O)COc3ccccc3)ccc21 | 6.1 | 5313 | 5.2 | 11.5 | -11.6 | 2.4 | 7.6
CCOC(=O)c1cnn(-c2cc(Oc3ccccc3C)ncn2)c1N | 0.6 | 3239 | 12.7 | 6.1 | -2.4 | -0.2 | -8.1
CNS(=O)(=O)c1cccc(C(=O)OCC(=O)Nc2ccc(N3CCCCC3)cc2)c1 | -8.9 | 3085 | 11.6 | 3.2 | -11.9 | -3.2 | 3.7
N#Cc1ccccc1NC(=O)CSc1n[nH]c(=O)n1C1CC1 | nt | 2955 | 1.6 | -3.3 | 0.5 | 1.1 | -4.0
O=C(CNS(=O)(=O)c1ccccc1)NCC(=O)OCc1ccccc1F | -6.5 | 2170 | -0.9 | 7.3 | -22.1 | 11.2 | 3.6
O=C1C2C3C=CC(C3)C2C(=O)N1CCCCN1C(=O)C2C3C=CC(C3)C2C1=O (stereo not given) | -2.4 | 3466 | -10.1 | -2.2 | -7.6 | -1.1 | -5.0
COC(=O)C1=C(C)OC(N)=C(C#N)C1c1ccco1 (stereo not given) | -3.4 | 3931 | 9.2 | 5.3 | -20.1 | 3.9 | 5.5
COC(=O)c1c(NC(=O)CSc2nnc(CNc3ccc(Cl)cc3)o2)sc(C)c1C | -15.1 | 3132 | -12.9 | 5.8 | -6.9 | 0.2 | 8.5
CCCNC(=S)N(Cc1ccccc1)Cc1nc2ccccc2c(=O)[nH]1 | -4.2 | 7620 | -6.8 | 3.9 | -11.1 | 31.7 | 1.0
CCOC(=O)c1cc2c(=O)n3cccc(C)c3nc2n(CC(C)C)c1=NC(=O)c1ccco1 | 6.0 | 4345 | -5.5 | -2.9 | -11.9 | 4.1 | 4.0
CC(C)n1nnnc1SCC(=O)N(C)C1CCS(=O)(=O)C1 (stereo not given) | nt | 4160 | 1.3 | -6.2 | -5.9 | 5.7 | 2.0
Cc1ccc2nc3c(cc(C(=O)NCCCn4ccnc4)n3C)c(=O)n2c1 | 0.7 | 4206 | -3.4 | 18.5 | -20.2 | 4.7 | 12.9
O=C(Cn1nnc(-c2ccc(Cl)cc2)n1)NC1CCS(=O)(=O)C1 (stereo not given) | nt | 4178 | 0.5 | 9.0 | -20.6 | 1.6 | -1.8
CCOC(=O)C1=C(N)Oc2cc(O)ccc2C1c1cccc([N+](=O)[O-])c1 (stereo not given) | -6.7 | 4797 | nt | nt | -5.5 | nt | nt
CC(=O)Nc1ccc(S(=O)(=O)N2c3ccccc3NC(=O)CC2C)c(Cl)c1 (stereo not given) | -1.0 | 4014 | -1.8 | 9.4 | -109.6 | 4.5 | -1.0

Reprinted from the part before: four compounds, then new ones.
Structure | BJeLR viability | Bead autofluor | ugtP null kill | Mtb hypoxia inh | PrP UTR inh | RN4220 kill | Mtb hypoxia inh growth
Cc1ccc2nc3c(cc(C(=O)NCCCn4ccnc4)n3C)c(=O)n2c1 | 0.7 | 4206 | -3.4 | 18.5 | -20.2 | 4.7 | 12.9
O=C(Cn1nnc(-c2ccc(Cl)cc2)n1)NC1CCS(=O)(=O)C1 (stereo not given) | nt | 4178 | 0.5 | 9.0 | -20.6 | 1.6 | -1.8
CCOC(=O)C1=C(N)Oc2cc(O)ccc2C1c1cccc([N+](=O)[O-])c1 (stereo not given) | -6.7 | 4797 | nt | nt | -5.5 | nt | nt
CC(=O)Nc1ccc(S(=O)(=O)N2c3ccccc3NC(=O)CC2C)c(Cl)c1 (stereo not given) | -1.0 | 4014 | -1.8 | 9.4 | -109.6 | 4.5 | -1.0
Cc1ccc(Oc2nc(-c3ccccn3)nc3ccccc23)cc1 | 4.2 | nt | 1.9 | 5.5 | nt | -0.8 | -6.0
Cc1ccc(-c2nc(N)n(S(=O)(=O)c3ccc(C)cc3)n2)cc1 | -3.3 | 3304 | 3.4 | 6.4 | -11.3 | 3.1 | 19.9
O=c1cc(CN2CCN(S(=O)(=O)c3cccc(Cl)c3)CC2)c2ccc(O)cc2o1 | nt | nt | -3.2 | -1.0 | nt | 4.1 | -3.2
CCc1cc(=O)oc2c(C)c(OS(C)(=O)=O)ccc12 | 7.5 | 2923 | 4.2 | nt | -5.8 | 2.3 | nt
O=C(c1cccs1)c1cn(CC(=O)N2CCc3ccccc3C2)c2ccccc12 | -9.6 | 4300 | -9.8 | -3.7 | -25.0 | -5.8 | -5.5
O=C(CCNS(=O)(=O)c1ccccc1C(F)(F)F)N1CCN(C(c2ccccc2)c2ccccc2)CC1 | 3.4 | 4853 | 22.3 | 3.4 | -22.9 | -7.3 | -1.5
c1ccc(Cn2nnnc2C(c2cccs2)N2CCOCC2)cc1 (stereo not given) | -3.7 | 3413 | -1.6 | 23.1 | -2.3 | -8.7 | 10.8
Cc1ccc(S(=O)(=O)N2CCCC(C(=O)N(Cc3cccs3)C3CC3)C2)cc1 (stereo not given) | 6.8 | 4619 | 3.8 | 4.6 | -3.2 | 4.5 | 8.4
O=C(CC12CC3CC(CC(Br)(C3)C1)C2)Nc1nncs1 | 1.1 | 3152 | 6.2 | 4.4 | -17.8 | 6.2 | -1.3
O=C1/C(=C/C=C/c2ccco2)SC(=S)N1NS(=O)(=O)c1ccccc1 | nt | 4570 | -0.6 | 9.9 | -2.0 | 1.9 | -2.6
CCCCN(C(=O)CC(c1ccccc1)c1ccccc1)c1c(N)n(CCC)c(=O)[nH]c1=O | 0.9 | 6474 | -4.3 | -3.2 | 3.0 | 1.4 | 4.7
CCn1c(C)[n+](Cc2ccccc2)c2ccc(Cl)cc21 | 8.5 | 4642 | 12.4 | 10.4 | -19.5 | 4.5 | 7.2

Taken from above.
Result of CCCCN(C(=O)CC(c1ccccc1)c1ccccc1)c1c(N)n(CCC)c(=O)[nH]c1=O under Mtb hypoxia inh: -3.2
Result of O=C(CCNS(=O)(=O)c1ccccc1C(F)(F)F)N1CCN(C(c2ccccc2)c2ccccc2)CC1 under ugtP null kill: 22.3
Result of CCn1c(C)[n+](Cc2ccccc2)c2ccc(Cl)cc21 under Mtb hypoxia inh: 10.4
Result of Cc1ccc(-c2nc(N)n(S(=O)(=O)c3ccc(C)cc3)n2)cc1 under Bead autofluor: 3304
Result of Cc1ccc(Oc2nc(-c3ccccn3)nc3ccccc23)cc1 under BJeLR viability: 4.2
Result of O=c1cc(CN2CCN(S(=O)(=O)c3cccc(Cl)c3)CC2)c2ccc(O)cc2o1 under Mtb hypoxia inh growth: -3.2

Full records, quoted from the list. Values in the order: BJeLR viability | Bead autofluor | ugtP null kill | Mtb hypoxia inh | PrP UTR inh | RN4220 kill | Mtb hypoxia inh growth
N#Cc1ccccc1NC(=O)CSc1n[nH]c(=O)n1C1CC1 across the screens: nt | 2955 | 1.6 | -3.3 | 0.5 | 1.1 | -4.0
CNS(=O)(=O)c1cccc(C(=O)OCC(=O)Nc2ccc(N3CCCCC3)cc2)c1 across the screens: -8.9 | 3085 | 11.6 | 3.2 | -11.9 | -3.2 | 3.7
